Compound activity as filed in PubChem.
Ecoli rRNA inh = selective bacterial rRNA inhibition in E. coli | E. coli WT GFP vs humanized-ribosome RFP mutants, fluorescence, 24 h; active compounds read low; DMSO median 0, no signal -100 | 350,000 compounds, 1.6% hits | AID 720706 | GFP signal change (wild-type ribosome), % (test concentration not listed);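 active = significant combined selectivity score with lowered wild-type GFP, culture density cut under 30%, mutant RFP and density less affected; inactive = any of these conditions unmet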; also: one replicate is shown; some compounds called inactive have numbers as strong as hits
FGF22 binding = shifts melting point of recombinant human FGF22. 340,000 compounds, 1.5% hits. AID 651658. recombinant FGF22 thermal shift, SYPRO orange fluorescence; percent of sucrose octasulfate shift, DMSO zero. calls only at 9.99 µM. Q9HCT0;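 active = melting point raised past a set limit in the mean and every replicate; three in four hits are not shown here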
Target sequence (Q9HCT0 whole entry, looked up): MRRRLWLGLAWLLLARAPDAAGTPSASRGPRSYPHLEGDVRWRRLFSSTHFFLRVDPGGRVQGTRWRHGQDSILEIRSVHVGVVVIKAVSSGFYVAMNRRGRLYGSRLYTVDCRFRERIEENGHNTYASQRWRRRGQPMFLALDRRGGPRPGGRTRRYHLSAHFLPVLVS
Ecoli rRNA inh OD600 = further read-out of Ecoli rRNA inh, marked with its call; OD600 change, %; measured here: OD600 growth;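 optical density of the mix in the first replicate; 0 = DMSO median and -100 = no signal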
Ecoli rRNA inh RFP = also measured in Ecoli rRNA inh; calls as there; RFP signal change, %; measured here: RFP humanized mutant strains;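 first replicate; 0 = DMSO median and -100 = no signal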
* hit, by the source's call; i = inactive.

Ecoli rRNA inh	Ecoli rRNA inh OD600	Ecoli rRNA inh RFP	FGF22 binding	SMILES
2.7	3.3	-2.0	i	O=C(Cc1ccccn1)NCC[C@H]1CC[C@@H](NC(=O)CN2CCOCC2)[C@@H](CO)O1
-2.1	-12.8	13.1	i	CC(C)CC#Cc1ccc([C@H]2[C@H]3CN(C(=O)c4ccc5c(c4)OCO5)CCCCN3[C@H]2CO)cc1
-2.1	-1.0	-3.8	i	C[C@@H]1CCCCO[C@@H](CN(C)S(=O)(=O)c2cccs2)[C@@H](C)CN([C@@H](C)CO)C(=O)c2cc(N(C)C)ccc2O1
2.1	-0.9	0.3	i	COc1ccc(NC(=O)N(C)C[C@@H]2Oc3ccc(NC(=O)Nc4ccccc4)cc3C(=O)N([C@H](C)CO)C[C@H]2C)cc1
-0.5	3.1	-1.2	i	O=C(c1cccnc1)N1CC(=O)N2[C@H](CO)[C@@H](c3ccc(-c4ccccc4F)cc3)[C@@H]2C1
-2.9	2.1	0.3	i	COc1ccccc1-c1cnc2c(c1)C(=O)N([C@@H](C)CO)C[C@H](C)[C@@H](CN(C)Cc1ccccc1)O2
1.1	-0.9	0.3	i	C[C@H]1CN([C@@H](C)CO)C(=O)Cc2cc(NC(=O)C3CC3)ccc2O[C@H]1CN(C)C(=O)Nc1ccccc1
3.8	10.7	0.2	i	C[C@@H]1CCCCO[C@@H](CN(C)Cc2ccc(C(=O)O)cc2)[C@@H](C)CN([C@H](C)CO)C(=O)c2cc(NS(=O)(=O)c3cn(C)cn3)ccc2O1
-1.0	-15.8	8.6	i	C[C@@H]1CN([C@H](C)CO)S(=O)(=O)c2ccc(C#CCC3CCCC3)cc2O[C@H]1CN(C)C(=O)c1cnccn1
-7.8	-19.9	0.5	i	C/C=C/c1ccccc1[C@@H]1[C@H](C#N)N(S(=O)(=O)c2cccc(F)c2)[C@H]1CO
-7.7	-10.7	0.6	i	O=C(Nc1ccc(F)cc1)N1[C@H](CO)[C@@H]2c3ccccc3NC[C@@H]21
-3.7	-5.1	-0.7	i	O=C(O)[C@H]1[C@H](CO)[C@H]2Cn3c(ccc(-c4ccccc4)c3=O)[C@H]2N1Cc1ccccc1F
-5.3	-18.6	2.3	i	C[C@@H]1CN([C@@H](C)CO)C(=O)c2cccc(NC(=O)C3CCCCC3)c2O[C@@H]1CN(C)Cc1ccc(Oc2ccccc2)cc1
0.0	5.6	3.7	i	COCC(=O)N1CC2(C1)CN(Cc1cc(F)ccc1F)[C@@H](CO)c1[nH]c3cc(OC)ccc3c12
2.1	15.6	0.6	i	COCC#Cc1cnc2c(c1)C(=O)N([C@@H](C)CO)C[C@@H](C)[C@@H](CN(C)C)O2
0.7	-0.9	0.4	i	CO[C@@H]1CN(C)C(=O)c2cc(NC(C)=O)ccc2OC[C@@H](C)N(CCc2ccccc2)C[C@@H]1C
0.6	3.1	-1.6	i	C[C@@H]1CN([C@@H](C)CO)C(=O)c2cccc(NC(=O)C3CCOCC3)c2O[C@H]1CN(C)S(=O)(=O)c1cccs1
-12.9	-4.3	6.9	i	C[C@H](NC(=O)C[C@H]1CC[C@H]2[C@@H](COC[C@H](O)CN2C(=O)Nc2cccc(F)c2)O1)c1ccccc1
1.3	0.6	1.2	i	CN(C)C(=O)C[C@H]1C[C@@H]2c3cc(NC(=O)CC4CC4)ccc3O[C@@H]2[C@@H](CO)O1
-0.5	1.2	-2.0	i	CCCNC(=O)C[C@H]1CC[C@H]2[C@@H](COc3ccc(NC(=O)c4cc(C)on4)cc3C(=O)N2C)O1

The closing 4 compounds of the section above open the next one.
Ecoli rRNA inh	Ecoli rRNA inh OD600	Ecoli rRNA inh RFP	FGF22 binding	SMILES
0.6	3.1	-1.6	i	C[C@@H]1CN([C@@H](C)CO)C(=O)c2cccc(NC(=O)C3CCOCC3)c2O[C@H]1CN(C)S(=O)(=O)c1cccs1
-12.9	-4.3	6.9	i	C[C@H](NC(=O)C[C@H]1CC[C@H]2[C@@H](COC[C@H](O)CN2C(=O)Nc2cccc(F)c2)O1)c1ccccc1
1.3	0.6	1.2	i	CN(C)C(=O)C[C@H]1C[C@@H]2c3cc(NC(=O)CC4CC4)ccc3O[C@@H]2[C@@H](CO)O1
-0.5	1.2	-2.0	i	CCCNC(=O)C[C@H]1CC[C@H]2[C@@H](COc3ccc(NC(=O)c4cc(C)on4)cc3C(=O)N2C)O1
1.1	5.7	-3.4	i	O=C(N[C@H]1CC[C@H](CCNS(=O)(=O)c2ccccc2)O[C@@H]1CO)c1cccnc1
3.5	1.1	-3.9	i	COCC(=O)N1C[C@@H](C)[C@H](OC)CN(C)C(=O)c2cc(NC(=O)C3CCC3)ccc2OC[C@@H]1C
-0.5	2.9	-5.5	i	CN1C(=O)c2cc(NC(=O)NCc3ccccc3)ccc2OC[C@@H]2O[C@H](CC(=O)O)CC[C@H]21
-7.1	-12.5	0.5	i	CO[C@@H](CN(C)S(=O)(=O)c1ccc(F)cc1)[C@H](C)CN(Cc1ccccc1Cl)[C@H](C)CO
-0.1	4.6	-0.8	i	Cc1noc(C)c1NC(=O)N(C)C[C@H]1Oc2ccc(NS(=O)(=O)c3cn(C)cn3)cc2C(=O)N([C@@H](C)CO)C[C@H]1C
-14.7	-14.2	4.4	i	COc1ccccc1NC(=O)N[C@@H]1CC[C@@H](CC(=O)NCc2ccc(Cl)c(Cl)c2)O[C@@H]1CO
-2.2	-1.3	-2.6	i	C[C@H](CO)N1C[C@H](C)[C@H](CN(C)C(=O)Nc2cccc3ccccc23)Oc2ccc(NC(=O)CCCCCC(=O)Nc3ccccc3N)cc2CC1=O
-1.9	4.6	3.2	i	COc1ccc(S(=O)(=O)Nc2ccc3c(c2)C(=O)N([C@@H](C)CO)C[C@@H](C)[C@H](CN(C)C(=O)C2CCCCC2)OCCCC[C@@H](C)O3)cc1
-3.4	-11.5	0.7	i	C[C@H](CO)N1C[C@H](C)[C@@H](CN(C)S(=O)(=O)c2ccccc2)Oc2c(NC(=O)c3ccc(-c4nccs4)cc3)cccc2C1=O
-9.2	-8.2	-1.3	i	Cc1cc(C(=O)Nc2cccc3c2O[C@@H](CN(C)Cc2ccc(C(F)(F)F)cc2)[C@H](C)CN([C@H](C)CO)C3=O)n(C)n1
-3.6	-1.2	0.6	i	O=C(C1CCOCC1)N1C[C@H]2[C@@H](c3ccccc31)[C@H](CO)N2Cc1ccc(Cl)cc1
1.4	-2.3	-0.2	i	C[C@@H]1CCCCO[C@@H](CN(C)S(=O)(=O)c2ccc(F)cc2)[C@@H](C)CN([C@@H](C)CO)C(=O)c2cc(NC(=O)CCCN(C)C)ccc2O1
-3.4	-0.3	2.0	i	CC(C)NC(=O)N(C)C[C@H]1Oc2c(NC(=O)Nc3ccc4c(c3)OCO4)cccc2C(=O)N([C@H](C)CO)C[C@H]1C
-1.0	-5.8	-1.8	i	C[C@@H]1CN([C@@H](C)CO)S(=O)(=O)c2ccc(C#CC(C)(C)O)cc2O[C@H]1CN(C)CC1CC1
-20.6	-55.7	9.0	i	CCS(=O)(=O)N1[C@H](CO)[C@H](c2ccc(C#Cc3ccccc3F)cc2)[C@@H]1C#N
1.6	-10.7	-2.8	i	CN(C)C(=O)[C@@H]1[C@@H](CO)[C@@H]2Cn3c(ccc(-c4ccccc4F)c3=O)[C@H]1N2C
-4.4	-6.1	-5.9	i	O=C(C[C@H]1CC[C@H]2[C@@H](COC[C@H](O)CN2Cc2cccc(C(F)(F)F)c2)O1)NCCc1ccncc1
-1.5	-3.8	-1.0	i	Cc1noc(C)c1NC(=O)Nc1cccc2c1O[C@H](CN(C)Cc1ccccc1)[C@@H](C)CN([C@@H](C)CO)C2=O
1.6	-10.1	-1.0	i	COc1ccc(NC(=O)Nc2ccc3c(c2)C(=O)N([C@@H](C)CO)C[C@H](C)[C@H](CN(C)C)OCCCC[C@H](C)O3)cc1
-1.8	8.8	1.6	i	C[C@H]1CCCCO[C@H](CN(C)C(=O)Nc2ccc3c(c2)OCO3)[C@@H](C)CN([C@@H](C)CO)C(=O)c2cc(NC(=O)NC3CCCCC3)ccc2O1
1.2	0.3	1.3	i	COCC(=O)Nc1ccc2c(c1)C(=O)N(C)C[C@@H](OC)[C@@H](C)CN(C(C)=O)[C@@H](C)CO2
-5.9	-12.4	1.4	i	CCCNC(=O)C[C@@H]1CC[C@@H]2[C@H](COc3ccc(NC(=O)c4cccc(Cl)c4)cc3C(=O)N2C)O1
4.7	9.0	-1.1	i	C[C@@H]1CN([C@@H](C)CO)C(=O)c2cccc(NS(=O)(=O)c3ccccc3)c2O[C@@H]1CN(C)C
-2.3	4.2	-2.7	i	COc1ccc(S(=O)(=O)N(C)C[C@@H]2Oc3c(NS(=O)(=O)c4cccs4)cccc3C(=O)N([C@@H](C)CO)C[C@@H]2C)cc1
6.1	5.5	-2.6	i	C[C@H]1CN([C@@H](C)CO)S(=O)(=O)c2ccc(C#CC(C)(C)O)cc2O[C@H]1CN(C)CC1CC1
-4.0	0.9	-0.1	i	O=S(=O)(NCC[C@H]1CC[C@H](NS(=O)(=O)c2ccccc2Cl)[C@@H](CO)O1)c1ccc(F)cc1
2.6	3.3	-0.1	i	CNC[C@@H]1Oc2ccc(NS(=O)(=O)c3ccc(C)cc3)cc2C(=O)N([C@@H](C)CO)C[C@H]1C
1.7	8.3	-1.7	i	CN(C)C(=O)c1cccc(-c2ccc([C@H]3[C@@H](CO)N4C(=O)CN(C(=O)Cc5ccccc5)C[C@@H]34)cc2)c1
-2.1	0.8	2.9	i	CCCNC(=O)N1CC2(CN(C(=O)c3cccc(F)c3)C2)c2c([nH]c3cc(OC)ccc23)[C@H]1CO
-14.1	-11.6	4.9	i	O=C(Nc1ccc2c(c1)[C@@H]1C[C@H](CC(=O)N3CCc4ccccc4C3)O[C@@H](CO)[C@@H]1O2)c1ccc2c(c1)OCO2
-0.1	-2.4	-1.7	i	CCN1[C@H](C(=O)NCC(F)(F)F)[C@@H](CO)[C@@H]2Cn3c(ccc(-c4ccccc4)c3=O)[C@@H]21
0.0	-2.9	2.1	i	Cc1ccc(S(=O)(=O)N[C@@H]2C=C[C@@H](CC(=O)N3CCN(c4ccccc4)CC3)O[C@H]2CO)cc1
1.1	3.6	-2.9	i	O=C(N[C@@H]1CC[C@H](CC(=O)N2CCc3ccccc3C2)O[C@@H]1CO)C1CCOCC1
1.4	6.6	1.0	i	CCCNC(=O)N1CC2(CCN(Cc3cccc(OC)c3)CC2)c2c([nH]c3cc(OC)ccc23)[C@H]1CO
-0.7	-5.8	-3.2	i	COc1ccc(NC(=O)N(C)C[C@@H]2Oc3ccc(NS(=O)(=O)c4ccc(F)cc4)cc3C(=O)N([C@H](C)CO)C[C@@H]2C)cc1
2.8	4.5	1.8	i	CO[C@@H]1CN(C)C(=O)c2cc(NS(C)(=O)=O)ccc2OC[C@H](C)N(C(=O)C2CCCC2)C[C@H]1C
4.7	9.5	-2.3	i	O=C(C[C@@H]1C[C@H]2c3cc(NC(=O)NC4CCCC4)ccc3O[C@H]2[C@@H](CO)O1)NCCN1CCCCC1
-4.5	-7.1	-0.3	i	COc1ccc(NC(=O)Nc2ccc3c(c2)[C@H]2C[C@H](CC(=O)NCc4ccccn4)O[C@H](CO)[C@H]2O3)cc1
5.3	-2.6	-0.4	i	O=C(C[C@H]1C=C[C@@H](NC(=O)c2ccc(F)cc2)[C@@H](CO)O1)NCc1ccncn1
-7.8	-3.2	-1.0	i	C[C@H](CO)N1C[C@H](C)[C@H](CN(C)C(=O)Nc2ccc3c(c2)OCO3)Oc2ccc(NC(=O)Nc3cccc4ccccc34)cc2C1=O
2.8	-2.1	3.7	i	C[C@@H]1CN([C@@H](C)CO)C(=O)c2cccc(NC(=O)Nc3ccc(C(F)(F)F)cc3)c2O[C@@H]1CN(C)C
-4.7	-10.8	1.3	i	COCC#Cc1ccc2c(c1)O[C@H](CN(C)C(=O)C1CCCCC1)[C@@H](C)CN([C@H](C)CO)S2(=O)=O
5.4	3.4	-5.4	i	C/C=C/c1cnc2c(c1)C(=O)N([C@@H](C)CO)C[C@H](C)[C@H](CN(C)S(=O)(=O)c1cn(C)cn1)O2
2.0	0.3	-1.0	i	CCC(=O)N1[C@H](CO)[C@@H](c2ccc(-c3cccnc3)cc2)[C@@H]1CN(CC)C(C)=O
4.2	4.7	1.4	i	C[C@@H]1CN([C@@H](C)CO)C(=O)Cc2cc(NC(=O)Nc3ccccc3)ccc2O[C@@H]1CN(C)Cc1ccc(Oc2ccccc2)cc1
-5.5	-12.9	1.8	i	C[C@H](CO)N1C[C@H](C)[C@H](CN(C)Cc2ccc3c(c2)OCO3)Oc2ccc(NC(=O)CCCCCC(=O)Nc3ccccc3N)cc2CC1=O
1.9	-0.6	-1.0	i	C[C@@H](NC(=O)C[C@@H]1CC[C@@H](NC(=O)c2cccnc2)[C@H](CO)O1)c1ccccc1
3.9	4.6	2.5	i	COc1ccc(NC(=O)N(C)C[C@@H]2Oc3c(NS(=O)(=O)c4cn(C)cn4)cccc3C(=O)N([C@H](C)CO)C[C@@H]2C)cc1
1.7	-3.9	5.9	i	C[C@@H]1CCCCO[C@@H](CN(C)Cc2ccccc2)[C@@H](C)CN([C@H](C)CO)C(=O)c2cc(NC(=O)Nc3ccc(F)cc3)ccc2O1
5.2	-3.5	-0.4	i	C[C@@H]1CN([C@@H](C)CO)C(=O)c2cc(C#CC3(O)CCCC3)cnc2O[C@H]1CN(C)C

A different layout for part of the listing above.
Values in the order – Ecoli rRNA inh | Ecoli rRNA inh OD600 | Ecoli rRNA inh RFP | FGF22 binding
COCC#Cc1ccc2c(c1)O[C@H](CN(C)C(=O)C1CCCCC1)[C@@H](C)CN([C@H](C)CO)S2(=O)=O
    -4.7 | -10.8 | 1.3 | i
C/C=C/c1cnc2c(c1)C(=O)N([C@@H](C)CO)C[C@H](C)[C@H](CN(C)S(=O)(=O)c1cn(C)cn1)O2
    5.4 | 3.4 | -5.4 | i

A portion of the library; rates above refer to the full screens.
